Screening results (PubChem BioAssay)
Six1-Eya2 inh: blocks human Six1 binding to Eya2; activity change, % (no concentration beside the values); AlphaScreen GST-Six1/His-Eya2 binding, biochemical; active compounds read low; control for the full effect not named in the record; 360,000 compounds, 0.56% hits; Q15475+O00167; in the data active = activity change below about -65%; inconclusive = about -30% to -65%; inactive = above about -30%; note: % is set by controls: 0 for no effect and ±100 for the full control effect
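AlphaScreen luminescence read after one hour at 37 °C in darkness. Pin-transferred compounds met GST-Six1 and His-Eya2 protein (5X stock 250 nM/500 nM) plus glutathione donor and Ni-chelate acceptor beads (5X, 50 ug/mL).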
TRPML1 ag: activates the human TRPML1 channel. Q9GZU1. activation, % (no concentration beside the values). 410,000 compounds, 0.12% hits. TRPML1-expressing cells, Ca2+ dye fluorescence, FDSS; host cell line not named in the record; reference of the full effect not given here; in the data active = activation above about 50%; inconclusive = about 30% to 50%; inactive = below about 30%; note: 0% is about no effect; the text of the record puts the active cut at 80%
Target sequence (Q9GZU1 whole entry, looked up): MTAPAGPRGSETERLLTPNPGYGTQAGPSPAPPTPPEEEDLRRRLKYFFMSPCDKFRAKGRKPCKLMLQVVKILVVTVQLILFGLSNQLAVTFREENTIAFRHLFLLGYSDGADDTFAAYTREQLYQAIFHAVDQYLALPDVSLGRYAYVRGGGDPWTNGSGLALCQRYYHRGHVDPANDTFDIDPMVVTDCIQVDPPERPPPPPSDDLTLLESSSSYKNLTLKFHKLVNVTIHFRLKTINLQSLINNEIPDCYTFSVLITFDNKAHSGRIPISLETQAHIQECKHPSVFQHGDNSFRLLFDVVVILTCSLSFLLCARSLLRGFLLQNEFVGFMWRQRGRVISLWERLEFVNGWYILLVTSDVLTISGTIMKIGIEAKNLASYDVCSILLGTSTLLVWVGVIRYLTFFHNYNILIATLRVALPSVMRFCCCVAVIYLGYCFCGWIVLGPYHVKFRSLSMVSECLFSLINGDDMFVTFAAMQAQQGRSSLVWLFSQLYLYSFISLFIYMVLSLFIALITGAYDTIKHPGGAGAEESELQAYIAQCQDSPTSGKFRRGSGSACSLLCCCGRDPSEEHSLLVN
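Tetracycline-induced TRPML1-DL cells are seeded and incubated overnight before loading with a no-wash Ca2+ dye and quencher. Agonist activity is taken from the 110 s fluorescence read following compound pin-transfer on an FDSS, before EC80 54-4 challenge.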
D2 ag: human D2 receptor agonism in beta-arrestin assay. DiscoveRx PathHunter D2 beta-arrestin, luminescence, 90 min; 100% = 57 uM dopamine signal. 360,000 compounds, 0.084% hits. P14416. activation, % (test concentration not listed). AID 624465; in the data active = activation above about 40%; inconclusive = about 15% to 40%; inactive = below about 15%; note: compound concentration not given in the record; the text of the record calls up to 30% inactive
Target sequence (P14416 whole entry, looked up): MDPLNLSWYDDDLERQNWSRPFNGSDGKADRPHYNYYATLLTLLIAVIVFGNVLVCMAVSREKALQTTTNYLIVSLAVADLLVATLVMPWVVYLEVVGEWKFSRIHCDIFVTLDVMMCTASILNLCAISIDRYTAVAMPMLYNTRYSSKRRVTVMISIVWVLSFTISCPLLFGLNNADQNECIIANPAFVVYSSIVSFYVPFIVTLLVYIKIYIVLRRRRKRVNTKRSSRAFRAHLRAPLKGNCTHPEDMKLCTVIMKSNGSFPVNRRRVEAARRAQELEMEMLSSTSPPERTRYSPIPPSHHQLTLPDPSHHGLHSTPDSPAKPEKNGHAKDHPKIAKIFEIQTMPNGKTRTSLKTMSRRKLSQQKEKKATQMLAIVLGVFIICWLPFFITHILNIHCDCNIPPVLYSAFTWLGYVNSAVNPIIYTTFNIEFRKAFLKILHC
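Agonist mode: compounds alone added to overnight-plated D2 PathHunter cells for 90 min at 37 C, with 57 uM final dopamine (EC100) defining full response. Beta-arrestin recruitment detected by chemiluminescent reagent, read after 1 h at ambient temperature.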
D2 potentiator: positive allosteric modulators of human D2 dopamine receptor; DiscoveRx D2 beta-arrestin cells, luminescence, 90 min; 100% = 57 uM dopamine signal; potentiation, % (test concentration not listed); 360,000 compounds, 0.23% hits; AID 624464; active = potentiation of 50% or more; inconclusive = 30% to 50%; inactive = 30% or less;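 note: compound concentration not given in the record; tested on top of an EC20 dose of dopamine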
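D2 cells co-treated with compound plus 50 nM dopamine (EC20) for 90 min at 37 deg C to detect potentiation. Beta-arrestin recruitment was read as enzyme-fragment luminescence after 1 h at ambient temperature. Full response was set by 57 uM dopamine.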
CtBP-E1A blk: inhibitors of CtBP/E1A interaction; AlphaScreen GST-E1A/His-CtBP binding, 1536-well; active compounds read low; control for the full effect not named in the record; activity change, % (no concentration beside the values); 340,000 compounds, 0.49% hits; in the data active means activity change below about -65%; inconclusive means about -30% to -65%; inactive means above about -30%; note: % is set by controls: 0 for no effect and ±100 for the full control effect
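AlphaScreen with 125 nM GST-E1A and 125 nM His-CtBP (5X stocks) in Tris pH 8.0, 300 mM NaCl, BSA, Tween 20, TCEP. Compounds preincubated 2 h at 37 deg C, then glutathione donor/nickel acceptor beads added for 1 h at 37 deg C in dark.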
PINK1 expr mod: changes PINK1 expression. PINK1 immunofluorescence, high-content cytometry, 24 h. Potency, µM (highest dose often 76.6 µM), inactives show top-dose activation (PINK1 increase), usual class: activators. 410,000 compounds, 0.2% hits; active = well fitted activation curve with a large enough effect; inconclusive = small, poorly fitted or top-dose-only effect; inactive = flat fitted curve, though single readings scatter; cell line not stated here;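 note: potency is the fitted concentration of half-maximal effect; % of control where 0% means no effect; nearly all actives have a fitted effect of over 65% in size; a mitochondrial uncoupler was the plate control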
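PINK1 protein, normally rapidly degraded, was detected by immunofluorescence after 24 hour compound treatment of a stable cell line. Titration data (5 concentrations) came from laser-scanning cytometry, with CCCP-treated wells as controls.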
* = called active by the depositor; ? = inconclusive; . = not tested or not shown; & = joins results of further samples; [ ] = remark or other dose.

SMILES	Six1-Eya2 inh	TRPML1 ag	D2 ag	D2 potentiator	CtBP-E1A blk	PINK1 expr mod
Cc1cccc2[nH]c(CCNC(=O)C3CCC(=O)N(CCc4cccc(F)c4)C3)nc12 (stereo not given)	2.0	-0.4	4.9	-4.6	2.3	0.4%
Cc1ccc2c(c1)N(CC(=O)NCCCN1CCCCC1)C(=O)c1cccnc1O2	0.4	0.2&-0.2	-3.6	-9.4	5.9	-1.0%&-0.3%
Cc1ccc(S(=O)(=O)N2CCN(c3ccnc4cc(Cl)ccc34)CC2)cc1	-4.4	-0.6	3.4	-3.1	-6.4	0.8%
Cc1cc(OCCOCCN(C)C)ccc1Cl	5.9	-0.6	-2.2	-4.3	2.5	0.6%
COc1ccc(C(=O)CN2CCN(c3ccc(Cl)cc3)CC2)cc1OC	-7.0	-1.0	-3.4	-14.8	-4.1	-1.8%
CC(=O)Nc1ccc(S(=O)(=O)N2CCN(C(=O)c3ccco3)CC2)cc1	1.4	.	-4.6	-5.4	4.7	0.4%
C#CCOCCOCCOCCNc1nc(N2CCN(C(=O)Cn3cc(CCCCN)nn3)CC2)nc(N2CCN(C(=O)[C@H](C(C)C)n3cc(CCO)nn3)CC2)n1	2.0	-0.6	0.6	-0.3	3.6	1.3%
Cc1ccc(NC(=O)COc2ccc(Br)cc2C)cc1	32.0	2.4	-0.8	-2.1	11.5	8.4%
C=CCn1c(SCc2ccc(C(=O)NCCO)cc2)nc2ccccc2c1=O	-12.7	-0.1	-5.3	-0.7	3.7	0.5%
CCOC(=O)c1sc(N2N=C(C)/C(=C\c3ccc(OCC(=O)OC)cc3)C2=O)nc1C	-11.1	-0.8	-7.3	1.6	-3.4	5.5%
N/C(=N\O)c1ccc(Cl)cc1Cl	1.4	1.1	-2.2	-3.4	-13.6	1.7%
CN(C)S(=O)(=O)N1CCN(C(=O)c2ccc3c(c2)OCO3)CC1	-1.1	0.5	0.1	-2.5	4.0	-0.2%
Cc1ccc(Oc2ncccc2/C=N/O)cc1	4.8	-0.7	-0.6	6.3	9.8	5.5%
Cc1ccccc1C1CC(c2ccc(Br)cc2)Nc2nc(N)nn21 (stereo not given)	-6.6	4.3	-0.9	-1.0	1.5	2.1%
O=C(Nc1cnc2ccccc2c1)c1ccco1	-0.7	-0.3	-4.3	-5.3	2.0	0.3%
CCN(CC)c1ccc(/C=N/NC(=O)C(O)c2ccccc2)cc1 (stereo not given)	-20.9	-1.2	-1.2	-10.1	0.2	1.7%
COc1ccc(N2CC(C(=O)N[C@H](C(=O)NC(C)c3ccccc3)C(C)C)CC2=O)cc1 (stereo not given in full)	6.0	-0.5	2.3	-2.5	.	1.0%
CCOC(=O)C1CCCN(c2cc(=O)n(-c3ccccc3Cl)c(=O)[nH]2)C1 (stereo not given)	1.0	0.1	-5.5	-5.5	-0.9	1.8%
CC1CC(C)(C)NC(=S)N1CCC(=O)Nc1ccc2c(c1)OCCO2 (stereo not given)	6.2	0.1	5.7	-10.6	-1.0	?
CC(C)CN(C(=O)COC(=O)c1cncc(Br)c1)c1c(N)n(Cc2ccccc2)c(=O)[nH]c1=O	-2.4	0.2	-1.0	6.0	-0.1	3.3%

Sorted by length of the SMILES (highest first): part of the list above
SMILES	Six1-Eya2 inh	TRPML1 ag	D2 ag	D2 potentiator	CtBP-E1A blk	PINK1 expr mod
C#CCOCCOCCOCCNc1nc(N2CCN(C(=O)Cn3cc(CCCCN)nn3)CC2)nc(N2CCN(C(=O)[C@H](C(C)C)n3cc(CCO)nn3)CC2)n1	2.0	-0.6	0.6	-0.3	3.6	1.3%
CC(C)CN(C(=O)COC(=O)c1cncc(Br)c1)c1c(N)n(Cc2ccccc2)c(=O)[nH]c1=O	-2.4	0.2	-1.0	6.0	-0.1	3.3%
COc1ccc(N2CC(C(=O)N[C@H](C(=O)NC(C)c3ccccc3)C(C)C)CC2=O)cc1 (stereo not given in full)	6.0	-0.5	2.3	-2.5	.	1.0%
CCOC(=O)c1sc(N2N=C(C)/C(=C\c3ccc(OCC(=O)OC)cc3)C2=O)nc1C	-11.1	-0.8	-7.3	1.6	-3.4	5.5%
CCOC(=O)C1CCCN(c2cc(=O)n(-c3ccccc3Cl)c(=O)[nH]2)C1 (stereo not given)	1.0	0.1	-5.5	-5.5	-0.9	1.8%
CN(C)S(=O)(=O)N1CCN(C(=O)c2ccc3c(c2)OCO3)CC1	-1.1	0.5	0.1	-2.5	4.0	-0.2%
C=CCn1c(SCc2ccc(C(=O)NCCO)cc2)nc2ccccc2c1=O	-12.7	-0.1	-5.3	-0.7	3.7	0.5%
CCN(CC)c1ccc(/C=N/NC(=O)C(O)c2ccccc2)cc1 (stereo not given)	-20.9	-1.2	-1.2	-10.1	0.2	1.7%
Cc1ccc(NC(=O)COc2ccc(Br)cc2C)cc1	32.0	2.4	-0.8	-2.1	11.5	8.4%
Cc1ccc(Oc2ncccc2/C=N/O)cc1	4.8	-0.7	-0.6	6.3	9.8	5.5%
N/C(=N\O)c1ccc(Cl)cc1Cl	1.4	1.1	-2.2	-3.4	-13.6	1.7%

Next section.
SMILES	Six1-Eya2 inh	TRPML1 ag	D2 ag	D2 potentiator	CtBP-E1A blk	PINK1 expr mod
COc1cc(/C=N/O)cc(Br)c1OS(=O)(=O)c1ccc(C)cc1	-11.1	2.5	-2.4	2.5	-4.1	-0.5%
COC(=O)c1[nH]c2ccccc2c1NC(=O)CCN1CCSCC1	-1.8	0.6	-2.4	-26.1	0.2	-1.5%
C=C(C)Cn1c(=S)[nH]c2ccccc2c1=O	5.4	-0.2	1.0	8.6	1.8	3.4%
CCc1ccc(NC(=O)NNC(=O)c2cc3ccccc3cc2O)cc1	0.1	1.3	-2.9	-1.8	6.3	1.7%
O=C(NNC(=O)C12CC3CC(CC(C3)C1)C2)c1ccccn1	-65.7*	1.2	-11.1	-13.9	-19.0	1.0%
COC(=O)CN(c1nc(C)c(Br)c(OC)n1)S(=O)(=O)c1ccccc1	-9.8	1.0	1.4	2.2	.	0.3%
C[C@H](CO)N1C[C@H](C)[C@@H](CN(C)C(=O)c2ccccc2)OCc2cnnn2CCCC1=O	0.5	.	-0.2	.	4.6	-0.5%
Clc1ccc(OCCCN2CCCC2)cc1Cl	7.0	-0.1	2.7	-12.1	0.0	4.4%
Cc1ccccc1COC(=O)CCC1=NS(=O)(=O)c2ccccc2N1	0.0	0.8	-0.2	-10.9	2.1	-0.6%
CCc1cc(C(=O)O)c(NC(=O)/C=C/c2ccc(OC)cc2)s1	-18.9	.	-7.2	-8.0	-1.0	-1.0%

Some of these compounds in order of SMILES length, smallest number first.
SMILES	Six1-Eya2 inh	TRPML1 ag	D2 ag	D2 potentiator	CtBP-E1A blk	PINK1 expr mod
O=C(NNC(=O)C12CC3CC(CC(C3)C1)C2)c1ccccn1	-65.7*	1.2	-11.1	-13.9	-19.0	1.0%
CCc1cc(C(=O)O)c(NC(=O)/C=C/c2ccc(OC)cc2)s1	-18.9	.	-7.2	-8.0	-1.0	-1.0%
COC(=O)CN(c1nc(C)c(Br)c(OC)n1)S(=O)(=O)c1ccccc1	-9.8	1.0	1.4	2.2	.	0.3%

(more compounds)
SMILES	Six1-Eya2 inh	TRPML1 ag	D2 ag	D2 potentiator	CtBP-E1A blk	PINK1 expr mod
CSCC[C@H](NC(=O)OC(C)(C)C)C(=O)N/N=C/c1cccc2nccnc12	?	-0.6	1.4	-5.1	-23.0	0.0%
COc1ccc(OC)c2c1sc(=NC(=O)c1cccc(N3C(=O)CCC3=O)c1)n2C	5.4	-0.1	2.5	-2.0	-0.3	11.0%
Clc1ccc(OCCCc2nc(-c3ccncc3)no2)c(Cl)c1	10.7	-0.4	0.0	-3.9	6.5	1.2%
CCn1c(SCC(=O)Nc2ccc(S(N)(=O)=O)cc2)nnc1-c1ccccc1OC	-16.2	0.1	0.0	-2.7	-0.8	0.8%
NC(=O)COC(=O)CCCSc1nc2ccccc2s1	0.9	0.4	-7.3	-3.0	10.3	0.3%
Cc1cccc(N2CCN(S(=O)(=O)c3c(C(=O)N4CCCCC4)c(C)n(C)c3C)CC2)c1C	-9.7	16.8	11.2	-4.6	-12.6	0.0%
O=C(NC(=S)Nc1ccc(CN2CCOCC2)cc1)c1cccc([N+](=O)[O-])c1	-17.7	0.1	-7.2	-18.5	1.0	-1.5%
CCOc1ccc(C(=O)NCC2CCCN2S(=O)(=O)c2cccs2)cc1 (stereo not given)	-1.0	-0.7	-2.2	2.8	0.2	-0.6%
Cc1c(CC(=O)O)c(=O)oc2cc3occ(-c4ccccc4)c3cc12	-3.4	.	-1.2	-4.9	0.0	-0.6%
CC1(C)CC(=O)C(C=NCCN2CCN(C3CC(=O)N(c4ccc(Cl)c(Cl)c4)C3=O)CC2)=C(O)C1 (stereo not given)	6.8	-0.2	2.7	-2.8	0.5	2.7%
C[C@@H]1CN([C@H](C)CO)C(=O)CCCn2nncc2CO[C@H]1CN(C)C(=O)c1ccccc1	-24.5	0.5	-7.4	-3.0	-19.1	1.5%
CCN(CC)CCCNC(=O)COc1ccc2oc3c(c2c1)CCCC3	-1.3	1.2	0.3	-16.6	.	0.4%
CCc1ccc(/C=C2\Oc3cc(OC(=O)N4CCOCC4)ccc3C2=O)cc1	5.1	0.0	1.5	-6.1	9.5	?
CC(NC(=O)c1ccco1)C(c1cccs1)N1CCN(c2ccccc2)CC1 (stereo not given)	-15.3	-0.3	3.9	-1.1	-3.3	0.7%
O=C(CN(c1ccccn1)S(=O)(=O)c1ccc(F)cc1)Nc1ccccc1	6.8	-0.4	-3.6	-6.8	1.1	0.7%
c1ccn2c(SCc3ccc4c(c3)OCO4)nnc2c1	0.0	-0.5	-1.3	3.3	6.0	0.8%
Cc1ccc(C)c(CSc2ccc3nnc(-c4ccccn4)n3n2)c1	?	1.4	9.1	-15.8	?	-0.4%
Cc1ccc(-c2c3c(=O)n(C)c(=O)n(C)c3cn2Cc2ccccn2)cc1	-8.2	-1.0	0.8	14.8	-11.7	0.9%
CCOc1cc(/C=C(\C#N)C(=O)Nc2ccccn2)ccc1O	8.2	2.4	-3.0	-6.6	0.8	2.2%
Cc1ccc(C(=O)NCCN2CCC(n3c(=O)[nH]c4ccccc43)CC2)cc1C	-4.0	-0.6	.	.	-0.4	1.4%
CC1(C(=O)N(CC(=O)NC2CCCC2)Cc2ccco2)CC(=O)N=C2C=CC=CN21 (stereo not given)	4.5	0.0	1.3	-1.2	4.5	5.0%[38.3 µM]
CC(=O)c1cccc(NC(=O)COC(=O)C2=COCCO2)c1	5.8	-0.3	-3.2	0.1	1.2	3.5%
Cc1ccc(C(=O)N[C@H](C(=O)OCc2cc(=O)oc3cc(C)ccc23)C(C)C)cc1	0.0	0.6	-5.3	-7.8	2.7	5.0%
COc1ccccc1NC(=O)CCCC(=O)OCC(F)(F)C(F)F	5.9	0.4	-0.2	-5.7	0.8	?
O=C(O)c1cc(-c2ccc(Cl)cc2)n(-c2ccccc2)n1	-0.2	-0.7	5.8	-2.1	3.0	-0.2%
S=C(NCc1ccco1)N1CCC(c2nc3ccccc3o2)CC1	-1.1	0.2	-5.6	-19.5	2.3	-0.2%
CC(C)(C)OC(=O)N1CCC[C@H]1c1nnc(SCc2c(F)cccc2Cl)o1	-1.7	0.1	-1.9	-8.9	7.5	0.4%
